V. cholerae QS: Vibrio cholerae quorum sensing activators, luminescence (AID 686977); V. cholerae quorum sensing reporter, luminescence, 6 h; higher luminescence means a stronger effect; most inactives read 0; one-dose luminescence at 50 µM unless noted; EC50 in µM for titrated hits; 9,400 tested, under 10 active;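 active means light above mean plus 3 SD and confirmed in a dose series; inconclusive means above that limit without a clear retest; inactive means below it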;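 further: raw light counts without normalisation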
* = called active by the depositor; [ ] = dose if it differs, or a comment. An excerpt (hit frequency here may not be typical).

CC12C(=O)N(c3cccc4cccnc34)C(=O)C1C1C=CC2C1 (stereo not drawn) was read as V. cholerae QS 240.
O=C(NC1CC1)C1CCC(=O)N1C1CCCC1 (stereo not drawn) was read as V. cholerae QS 0.
Screening CN1CCCN(C(c2ccccc2)c2ccc(Cl)cc2)CC1 (stereo not drawn) returned V. cholerae QS 0[10 µg/mL].
`CCCC1=C(C(=O)OCC)C(/C=C/c2ccccc2)n2ncnc2N1` (stereo not drawn) gave V. cholerae QS 40.
For COC(=O)[C@H](C)NC(=O)Nc1cccc(C)c1 the results were V. cholerae QS 0.
Cc1ccc(NC(=O)CSc2ncc(-c3ccccc3)n2C(=O)c2ccccc2)cc1 was read as V. cholerae QS 0.
CCCCN(C)Cc1c(C)[nH]c2ccc(OCC)cc2c1=O was read as V. cholerae QS 0.
`COc1ccccc1N1CCN(S(=O)(=O)c2cccs2)CC1` gave V. cholerae QS 0.
For COc1ccc(CNC(=O)COC(=O)c2c(-c3c(F)cccc3Cl)noc2C)cc1OC the results were V. cholerae QS 0.
COc1ccc(S(=O)(=O)N2CCC(C(=O)NCC3CCCO3)CC2)cc1 (stereo not drawn) was read as V. cholerae QS 0.
Screening CCOC(=O)C1=C(C)NC(=O)NC1c1ccc(OCC(=O)Nc2ccccc2)c(OC)c1 (stereo not drawn) returned V. cholerae QS 0.
For COc1cc(NC(C)C(=O)N2CC(C)OC(C)C2)cc(OC)c1 (stereo not drawn) the results were V. cholerae QS 240.
For COc1ccccc1NC(=O)c1oc2ccc(C)cc2c1C the results were V. cholerae QS 40.
For CN(C)CCCNC1CS(=O)(=O)CC1O (stereo not drawn) the results were V. cholerae QS 0.
`O=C(CSc1nc(-c2ccncc2)nn1CC(=O)N1CCCCC1)NC1CCCC1` gave V. cholerae QS 40.

Sorted by number of heavy atoms (largest number first): some entries from above.
For COc1ccc(CNC(=O)COC(=O)c2c(-c3c(F)cccc3Cl)noc2C)cc1OC the results were V. cholerae QS 0.
`O=C(CSc1nc(-c2ccncc2)nn1CC(=O)N1CCCCC1)NC1CCCC1` gave V. cholerae QS 40.
CCCCN(C)Cc1c(C)[nH]c2ccc(OCC)cc2c1=O was read as V. cholerae QS 0.

(listing goes on)
Cc1c(NC(=O)c2ccco2)cccc1-c1nc2cccnc2s1 was read as V. cholerae QS 0.
For Clc1ccc(OCc2nc(-c3ccccn3)no2)c(Br)c1 the results were V. cholerae QS 40.
N#CCCN(C(=O)CSc1nc(-c2ccccc2)cn1N)c1ccc(F)cc1 was read as V. cholerae QS 0.
`OCCN1CCN(CC/C=C2/c3ccccc3Sc3ccc(Cl)cc32)CC1` gave V. cholerae QS 40[10 µg/mL].
`CCCCSc1nc(N)c(NC(=O)c2ccco2)c(=O)[nH]1` gave V. cholerae QS 0.
O=C(Nc1ccccc1)O/N=C/c1ccncc1 was read as V. cholerae QS 0.
Screening CC(C)c1ccc(NC(=O)C2CCCN(S(=O)(=O)c3cnc[nH]3)C2)cc1 (stereo not drawn) returned V. cholerae QS inconclusive.
Cc1cc(=O)n2ccccc2c1C#N was read as V. cholerae QS 0.
For CCc1ccc(-c2nn(-c3ccccc3)cc2C2SCC(=O)N2Cc2ccco2)cc1 (stereo not drawn) the results were V. cholerae QS 0.
`CCOC(=O)C1=C(C)OC(N)=C(C#N)C12C(=O)Nc1ccc(C)cc12` (stereo not drawn) gave V. cholerae QS 240.
CC(C)CC(/C(O)=C(\C#N)c1nc2ccccc2[nH]1)N1C(=O)c2ccccc2C1=O (stereo not drawn) was read as V. cholerae QS 0.
COc1ccc2c3c([nH]c2c1)C(C)=NCC3 was read as V. cholerae QS inconclusive.
Screening O=C(c1cc2ccccc2o1)N1CCN=C1SCc1cccc(F)c1 returned V. cholerae QS 0.
`O=c1[nH]c(Cc2ccccc2)nc2scc(-c3ccccc3)c12` gave V. cholerae QS 0.
For CCCOc1ccc(-c2nc(C#N)c(N3CCN(CC)CC3)o2)cc1 the results were V. cholerae QS 40.

Quoted from above, 7 compounds:
For CCc1ccc(-c2nn(-c3ccccc3)cc2C2SCC(=O)N2Cc2ccco2)cc1 (stereo not drawn) the results were V. cholerae QS 0.
`CCOC(=O)C1=C(C)OC(N)=C(C#N)C12C(=O)Nc1ccc(C)cc12` (stereo not drawn) gave V. cholerae QS 240.
CC(C)CC(/C(O)=C(\C#N)c1nc2ccccc2[nH]1)N1C(=O)c2ccccc2C1=O (stereo not drawn) was read as V. cholerae QS 0.
COc1ccc2c3c([nH]c2c1)C(C)=NCC3 was read as V. cholerae QS inconclusive.
Screening O=C(c1cc2ccccc2o1)N1CCN=C1SCc1cccc(F)c1 returned V. cholerae QS 0.
`O=c1[nH]c(Cc2ccccc2)nc2scc(-c3ccccc3)c12` gave V. cholerae QS 0.
For CCCOc1ccc(-c2nc(C#N)c(N3CCN(CC)CC3)o2)cc1 the results were V. cholerae QS 40.

Remaining list, next part:
Cc1ccc2c(c1)C(c1ccc(F)cc1)N(C(=O)C1CC1)CC(=O)N2 (stereo not drawn) was read as V. cholerae QS 0.
O=C(NCc1ccccc1)c1cnc(-c2ccccn2)nc1C(F)(F)F was read as V. cholerae QS 0.
`CCC(=O)Nc1nc2c(s1)COc1ccccc1-2` gave V. cholerae QS 0.
CN(C)CCCNCCCCNC(=O)/C=N/O was read as V. cholerae QS 0.
Screening NS(=O)(=O)c1cc2c(cc1Cl)NC(C(Cl)Cl)NS2(=O)=O (stereo not drawn) returned V. cholerae QS 0[10 µg/mL].
`Oc1ccc2ccccc2c1/C=N/Nc1nnc(-c2ncc[nH]2)c2ccccc12` gave V. cholerae QS 0.
For O=c1cc(CSc2nnc(Nc3ccccc3)s2)nc2sccn12 the results were V. cholerae QS 0.
`CCOC(=O)N1CCN(C(=O)c2cccn3c(=O)c4sccc4nc23)CC1` gave V. cholerae QS 40.
Screening O=C(C1CCCN(S(=O)(=O)c2cnc[nH]2)C1)N1CCN(Cc2ccccc2)CC1 (stereo not drawn) returned V. cholerae QS 40.
COc1ccc(N2C(=O)C3CCCN3C2c2ccccc2OC)cc1 (stereo not drawn) was read as V. cholerae QS 0.
For CNC(=O)c1sc2nc(-c3ccc(OC)cc3)cn2c1C the results were V. cholerae QS 0.
Screening CCC(SC1=NCCS1)C(=O)Nc1nnc(-c2ccccc2OC)s1 (stereo not drawn) returned V. cholerae QS 40.
For COc1ccc(C(=O)Nc2nncs2)c(OC)c1 the results were V. cholerae QS 0.
Screening CCOC(=O)c1c(-c2cccs2)csc1NC(=O)CC(C)C returned V. cholerae QS 560.
O=C(O)C1CCCN1C(=O)Oc1ccccc1 (stereo not drawn) was read as V. cholerae QS inconclusive.
CC(c1ccco1)N(C(=O)c1cccs1)c1ccccn1 (stereo not drawn) was read as V. cholerae QS inconclusive.
For CCCCCN(CCCCC)C(=O)C(CCC(=O)O)NC(=O)c1ccc(Cl)c(Cl)c1 (stereo not drawn) the results were V. cholerae QS 40[10 µg/mL].
`CCN(CC)CCNC1=NCCn2c1cc1cc(OC)ccc12` gave V. cholerae QS 40.
CN1CCC2=C[C@H](O)[C@H]3OC(=O)c4cc5c(cc4[C@H]3[C@@H]21)OCO5 was read as V. cholerae QS 160[10 µg/mL].
`Cc1cc2c(C(C)C)c(O)c(O)c(C=O)c2c(O)c1-c1c(C)cc2c(C(C)C)c(O)c(O)c(C=O)c2c1O` gave V. cholerae QS 40[10 µg/mL].
`Cc1nn(-c2ccccc2)c(Cl)c1C(=O)NCCCCNC(=O)c1c(C)nn(-c2ccccc2)c1Cl` gave V. cholerae QS 0.
Cc1ccn(C(CC(=O)c2ccc(Br)cc2)C(=O)O)n1 (stereo not drawn) was read as V. cholerae QS 0.
For O=C(Cn1c(=O)oc2ccccc21)N1CCN(c2ccc(N3CCOCC3)nn2)CC1 the results were V. cholerae QS 0.
Screening C=C(C)COc1ccc2c(C)c(C)c(=O)oc2c1OCC(=C)C returned V. cholerae QS 0.
`CC(Nc1nc(N2CCCC2)nc2ccccc12)c1ccccc1` (stereo not drawn) gave V. cholerae QS 0.
For CCOC(=O)c1cnc2ccc(C(=O)OC)cc2c1NCCN1CCOCC1 the results were V. cholerae QS 0.
CCOC(=O)N1CCN(c2cc(=O)n(-c3ccc(Br)cc3)c(=O)[nH]2)CC1 was read as V. cholerae QS 0.
`c1ccc(OCc2nnc3sc(C4COc5ccccc5O4)nn23)cc1` (stereo not drawn) gave V. cholerae QS 0.
For CC(C)(C)NC(=O)CSc1nc2ccccc2n1-c1ccccc1 the results were V. cholerae QS 40.
`Cn1c(=O)oc2cc(S(=O)(=O)N3CCCC(C(=O)NCCN4CCOCC4)C3)ccc21` (stereo not drawn) gave V. cholerae QS 40.
Screening CCOc1ccc(NC(=O)c2cc3c(=O)n(C)c4ccccc4c3n2C)cc1 returned V. cholerae QS 0.
O=C(O)CSc1cccc2cccc(C(=O)O)c12 was read as V. cholerae QS 0.
O=C(Cn1nnc(-c2ccccc2F)n1)Nc1ccc(S(=O)(=O)NC2CCCC2)cc1 was read as V. cholerae QS 0.
Cc1ccc(C(=O)c2ccc([N+](=O)[O-])cc2)cc1C was read as V. cholerae QS 40.
For C=C1CC[C@H](O)C/C1=C/C=C1\CCC[C@]2(C)[C@@H]([C@H](C)CCCC(C)C)CC[C@@H]12 the results were V. cholerae QS 40[10 µg/mL].
Screening CN(C(=O)CSC1=NCCS1)c1ccccc1 returned V. cholerae QS 40.
Screening COc1ccc(Cl)cc1C(=O)NCCN(C)C returned V. cholerae QS 0.
Cc1ccc(SCCC(=O)Nc2c(C)n(C)n(-c3ccccc3)c2=O)cc1 was read as V. cholerae QS 0.
Screening Cc1ccc(C(=O)/C=C/c2cn(CN3CCN(C)CC3)c3ccccc23)cc1 returned V. cholerae QS 0.
For Cc1ccccc1NCC(=O)c1ccc(Br)cc1 the results were V. cholerae QS 0.
For O=c1c2[nH]c3ccc(F)cc3c2ncn1CCN1CCN(Cc2ccccc2)CC1 the results were V. cholerae QS 0.
Screening COc1cc(C)c(S(=O)(=O)n2nnc3ccccc32)cc1C returned V. cholerae QS 0.
COc1cc(CN2C(=O)C(NC(=O)c3ccco3)(C(F)(F)F)C3=C2CC(C)(C)CC3=O)cc(OC)c1 (stereo not drawn) was read as V. cholerae QS 0.
For O=C(Nc1nnc(-c2cccs2)o1)c1cccc(C(F)(F)F)c1 the results were V. cholerae QS 0.
Screening CC1Cc2ccccc2N1C(=O)C1CCCN(S(=O)(=O)c2cccc3cccnc23)C1 (stereo not drawn) returned V. cholerae QS 0.

Next section; it opens with the six that closed the last part.
For Cc1ccccc1NCC(=O)c1ccc(Br)cc1 the results were V. cholerae QS 0.
For O=c1c2[nH]c3ccc(F)cc3c2ncn1CCN1CCN(Cc2ccccc2)CC1 the results were V. cholerae QS 0.
Screening COc1cc(C)c(S(=O)(=O)n2nnc3ccccc32)cc1C returned V. cholerae QS 0.
COc1cc(CN2C(=O)C(NC(=O)c3ccco3)(C(F)(F)F)C3=C2CC(C)(C)CC3=O)cc(OC)c1 (stereo not drawn) was read as V. cholerae QS 0.
For O=C(Nc1nnc(-c2cccs2)o1)c1cccc(C(F)(F)F)c1 the results were V. cholerae QS 0.
Screening CC1Cc2ccccc2N1C(=O)C1CCCN(S(=O)(=O)c2cccc3cccnc23)C1 (stereo not drawn) returned V. cholerae QS 0.
`c1ccc(SCc2nc3ccccc3[nH]2)cc1` gave V. cholerae QS 0.
O=C(O)CCCCCNC(=O)c1ccccc1Br was read as V. cholerae QS 0.
OC(c1ccccc1)(c1ccccc1)C1CCNCC1 was read as V. cholerae QS 0[10 µg/mL].
Screening CC1CN(CCC(=O)Nc2ccc3c(c2)CCC3)CC(C)O1 (stereo not drawn) returned V. cholerae QS 0.
`OCc1nc2ccccc2n1C/C=C/c1ccccc1` gave V. cholerae QS 0.
For C[N+](C)(C)CCCCCCCCCC[N+](C)(C)C the results were V. cholerae QS 0[10 µg/mL].
Screening COc1ccc(N=C2C(=Nc3ccc(OC)cc3)N(c3ccc(OC)cc3)C(=S)N2c2ccccc2)cc1 returned V. cholerae QS 0.
Cc1ccc(CCNC(=O)C2CCCN2S(=O)(=O)c2ccc3c(c2)CCC(=O)N3)cc1 (stereo not drawn) was read as V. cholerae QS 0.
Screening O=C(O)CCCSCC(=O)Nc1ccccc1 returned V. cholerae QS 0.
CCn1cc(C(=O)Nc2ccc3c(c2)OCCO3)c2cc(OC)c(OC)cc2c1=O was read as V. cholerae QS 0.
`COCCn1c(SCc2cccnc2)nnc1-c1c[nH]c2ccccc12` gave V. cholerae QS 200.
Screening COc1ccc(C(=O)c2coc3ccc(O)c(CN(C)C)c23)cc1 returned V. cholerae QS 0.
Screening CCOC(=O)N1CCC(Nc2c(NCCN3CCN(c4ccccc4F)CC3)c(=O)c2=O)CC1 returned V. cholerae QS 320.
For O=C1CCc2cc(S(=O)(=O)N3CCC(C(=O)NC4CCCCCCC4)CC3)ccc2N1 the results were V. cholerae QS 0.
`NS(=O)(=O)c1ccc(CCNC(=O)COC(=O)C2CCCN2C(=O)c2cccs2)cc1` (stereo not drawn) gave V. cholerae QS 0.
Screening Cc1cc(NC(=O)CSc2c3c(nc4ccccc24)CCC3)no1 returned V. cholerae QS 80.
Screening COc1ccc(Cl)cc1NC(=O)Cn1c(=O)n2nc(C)nc2c2ccccc21 returned V. cholerae QS 0.
`COc1ccc(C(=O)Nc2cc(C)c3c(=O)oc4ccccc4c3n2)cc1` gave V. cholerae QS 0.
COc1cc(C2CC(=O)N3CN(Cc4ccccc4)CSC3=C2C#N)ccc1OCc1ccccc1 (stereo not drawn) was read as V. cholerae QS 0.
Screening O=C1CC(c2ccccc2)CC(O)=C1C=NCCN1CCOCC1 (stereo not drawn) returned V. cholerae QS 0.
`Cc1ccc(-c2nc(SCC(=O)N(C)C3CCS(=O)(=O)C3)[nH]c2-c2ccc(C)cc2)cc1` (stereo not drawn) gave V. cholerae QS inconclusive.
COc1cc(/C=C(/C#N)c2nc3ccccc3[nH]2)ccc1OCC(=O)Nc1ccccc1C(C)C was read as V. cholerae QS 0.
For CCOC(=O)O[C@]1(C(=O)COC(=O)CC)CC[C@H]2[C@@H]3CCC4=CC(=O)C=C[C@]4(C)[C@H]3[C@@H](O)C[C@@]21C the results were V. cholerae QS 0[10 µg/mL].
`CCCOc1ccccc1C1CC(=O)NC2=C1C(=O)CCC2` (stereo not drawn) gave V. cholerae QS 0.

Screens deposited in PubChem BioAssay by Southern Research Specialized Biocontainment Screening Center.
